TRPV1 potentiator: human TRPV1 potentiation; Q8NER1; TRPV1-expressing cells, Fluo-8 calcium influx, capsaicin EC20 potentiation; host cell line not named in the record; control for the full effect not named in the record; potentiation, % at 8.33 µM; hit rate 0.02% among 320,000; active means potentiation above 80%; inconclusive means 30% to 80%; inactive means below 30%; note: 0% is about no effect
Target sequence (Q8NER1 whole entry, looked up): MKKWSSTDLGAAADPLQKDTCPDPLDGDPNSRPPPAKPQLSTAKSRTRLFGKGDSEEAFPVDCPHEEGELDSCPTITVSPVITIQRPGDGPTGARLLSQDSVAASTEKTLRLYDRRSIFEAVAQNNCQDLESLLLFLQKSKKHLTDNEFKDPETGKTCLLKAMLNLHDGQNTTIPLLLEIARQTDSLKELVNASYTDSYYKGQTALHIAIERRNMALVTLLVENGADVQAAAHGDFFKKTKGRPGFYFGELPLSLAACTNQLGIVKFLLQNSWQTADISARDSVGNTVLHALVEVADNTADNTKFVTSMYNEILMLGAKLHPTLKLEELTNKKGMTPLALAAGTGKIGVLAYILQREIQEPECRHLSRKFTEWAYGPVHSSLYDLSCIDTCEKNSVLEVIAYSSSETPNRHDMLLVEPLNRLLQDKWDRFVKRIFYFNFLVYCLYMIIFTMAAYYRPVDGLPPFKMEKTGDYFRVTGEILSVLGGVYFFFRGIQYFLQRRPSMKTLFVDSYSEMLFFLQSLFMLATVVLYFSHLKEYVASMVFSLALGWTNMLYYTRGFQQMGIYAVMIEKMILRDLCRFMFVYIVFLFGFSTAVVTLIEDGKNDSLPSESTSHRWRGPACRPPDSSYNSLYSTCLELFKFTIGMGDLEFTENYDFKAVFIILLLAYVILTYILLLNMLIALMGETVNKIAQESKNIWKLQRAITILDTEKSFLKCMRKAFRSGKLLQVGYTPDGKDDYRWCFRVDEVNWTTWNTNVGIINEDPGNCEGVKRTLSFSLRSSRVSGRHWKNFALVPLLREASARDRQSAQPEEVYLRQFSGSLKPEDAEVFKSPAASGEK
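TRPV1-expressing cells were cultured overnight at 35.5C and loaded with Fluo-8 calcium dye for 40 to 90 min at room temperature. After a 10 s baseline, compound was added and calcium influx was read kinetically for 3 min (ex 480/em 520 nm).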
D2 PAM: human D2 receptor positive allosteric modulation | DiscoveRx D2 beta-arrestin cells, luminescence, 90 min; 100% = 57 uM dopamine signal | hit rate 0.23% among 360,000 | AID 624464 | potentiation, % (concentration not given with the values); active = potentiation of 50% or more; inconclusive = 30% to 50%; inactive = 30% or less;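 note: compound concentration not given in the record; tested on top of an EC20 dose of dopamine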
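PathHunter D2 cells, attached overnight at 37 deg C, received compound in DMSO plus dopamine at EC20 (50 nM final) for 90 min at 37 deg C. Beta-arrestin recruitment was read as luminescence after 1 h with detection reagent at ambient temperature.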
CtBP-E1A blk: blocks the CtBP interaction with E1A | AID 651724 | hit rate 0.49% among 340,000 | AlphaScreen GST-E1A/His-CtBP binding, 1536-well; stronger effect = lower value; control for the full effect not named in the record | activity change, % (concentration not given with the values); in the data active means activity change below about -65%; inconclusive means about -30% to -65%; inactive means above about -30%; note: % is set by controls: 0 for no effect and ±100 for the full control effect
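AlphaScreen with 125 nM GST-E1A and 125 nM His-CtBP (5X stocks) in Tris pH 8.0, 300 mM NaCl, BSA, Tween 20, TCEP. Compounds preincubated 2 h at 37 deg C, then glutathione donor/nickel acceptor beads added for 1 h at 37 deg C in dark.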
D2 ag: activates the human D2 dopamine receptor; DiscoveRx PathHunter D2 beta-arrestin, luminescence, 90 min; 100% = 57 uM dopamine signal; P14416; AID 624465; hit rate 0.084% among 360,000; activation, % (test concentration not listed); in the data active = activation above about 40%; inconclusive = about 15% to 40%; inactive = below about 15%; note: compound concentration not given in the record; the text of the record calls up to 30% inactive
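DiscoveRx PathHunter D2 beta-arrestin cells (2,100/well) attached overnight, then compound-stimulated 90 min at 37 C in HBSS/10 mM HEPES/0.1% Tween-20 buffer; beta-galactosidase complementation read by luminescence after 1 h at ambient temperature. Dopamine 57 uM final (EC100) as control.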
Sfp inh: Sfp phosphopantetheinyl transferase inhibition. Q9F4F7. Biochemical Sfp PPTase activity, qHTS. Potency, µM, inactives show max response, negative = inhibition, actives largely listed as inhibitors. hit rate 3.5% among 310,000; active = well fitted inhibition curve with a large enough effect; inconclusive = small, poorly fitted or top-dose-only effect, or another doubt; inactive = no such curve, though single readings can be large or run the other way;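 note: the enzyme is Sfp with the accession as filed and its product quenches rhodamine fluorescence; potency is the fitted concentration of half-maximal effect; 0% = enzyme reaction without inhibitor and -100% = no enzyme wells; top concentration of the series not given in the record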
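Sfp 15 nM + cpd, 15 min RT; start w/ rhodamine-CoA 5 uM, BHQ-2-YbbR 12.5 uM (final); 50 mM Hepes pH 7.6, 10 mM MgCl2, 0.01% NP-40, 0.01% BSA; read 525/598 nm at 0 and 30 min.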
PINK1 modulator: PINK1 expression modulation; AID 624263; PINK1 immunofluorescence, high-content cytometry, 24 h; hit rate 0.2% among 410,000; Potency, µM (series often up to 76.6 µM), without a hit: at the highest dose activation (PINK1 increase), hits mostly activators; active = well fitted activation curve with a large enough effect; inconclusive = small, poorly fitted or top-dose-only effect; inactive = flat fitted curve, though single readings scatter; cell line not stated here;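 note: potency is the fitted concentration of half-maximal effect; % of control where 0% means no effect; nearly all actives have a fitted effect of over 65% in size; a mitochondrial uncoupler was the plate control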
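PINK1 protein level read as immunofluorescence by microplate cytometer in a fixed, stained stable cell line after 24 h exposure to five compound concentrations, with CCCP as control.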
Six1-Eya2 blk: inhibitors of human Six1/Eya2 interaction | Q15475+O00167 | hit rate 0.56% among 360,000 | activity change, % (no concentration beside the values) | AID 651725 | AlphaScreen GST-Six1/His-Eya2 binding, biochemical; stronger effect = lower value; control for the full effect not named in the record; in the data active = activity change below about -65%; inconclusive = about -30% to -65%; inactive = above about -30%; note: % is set by controls: 0 for no effect and ±100 for the full control effect; compound concentration not given in the record
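Six1/Eya2 binding was read as AlphaScreen signal after compounds were pinned into GST-Six1 plus His-tagged Eya2 (5X stock 250/500 nM) in pH 8.0 Tris/NaCl/TCEP buffer, beads added, then incubated 1 h, 37 C, dark.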
Numbers without * were called inactive; ? = inconclusive; . = no result given; [ ] = dose if it differs, or a comment. Compounds as they come; overall some 3.7% were active at least once.

SMILES | TRPV1 potentiator | D2 PAM | CtBP-E1A blk | D2 ag | Sfp inh | PINK1 modulator | Six1-Eya2 blk
Cn1c(/C=C/c2cccc(Br)c2)nc2ccccc2c1=O | -11.2 | 7.1 | 0.0 | -2.8 | ? | -2.1% | 16.2
CC1(C)CCC(=O)C=C1Nc1ccc(F)c(Cl)c1 | -16.4 | 2.3 | . | 9.3 | 15.9% | -0.3% | -1.9
CC(C)NC(=O)c1onc(CSc2ccc(F)c(F)c2)c1C(=O)NC(C)C | . | -9.3 | 0.0 | 0.6 | . | 6.5% | 33.8
CCCNC(=O)COC(=O)c1c2c(nc3ccccc13)CCC2 | -17.2 | -0.2 | -1.4 | -1.9 | 7.6% | 0.5% | 5.0
CCCCNC(=O)CN1C(=O)NC(Cc2ccccc2)(Cc2ccccc2)C1=O | 11.9 | -4.1 | 7.2 | 2.2 | 13.9% | -0.2% | -0.5
Cc1[nH]c(=O)[nH]c(=O)c1/C=C/C(=O)O | 1.4 | -4.8 | 3.8 | -3.3 | 13.5% | -0.3% | 8.7
Cc1ccc(NC(=O)COc2nc(C)cs2)cc1 | -3.7 | -9.3 | -18.8 | 3.5 | 5.3% | 3.3% | 3.0
O=C(COC(=O)CSc1ccccc1)NCCNC(=O)COC(=O)CSc1ccccc1 | 4.7 | -14.7 | -20.7 | -2.3 | . | -0.1% | -2.8
COC(=O)C1=C(C)NC(=O)CC1c1ccccc1OC (stereo unspecified) | 5.7 | 2.7 | -23.2 | -1.6 | 8.8% | -1.2% | 5.0
CCOC(=O)c1ccc(NS(=O)(=O)c2cc(C)ccc2OC)cc1 | 4.8 | 1.0 | -1.4 | -2.2 | -5.9% | 1.9% | -0.6
CCOC(=O)CSc1nc2ccc(N3CCOCC3)cc2c(=O)n1Cc1ccccc1 | -21.6 | 21.2 | 1.3 | 3.9 | ? | . | -1.3
Cc1ccccc1-n1nc2c(c1NC(=O)c1c(-c3ccccc3Cl)noc1C)CS(=O)(=O)C2 | 10.0 | 5.3 | -5.1 | 0.6 | 13.8% | 0.1% | -1.6
O=C(CO)C(O)C(O)C(O)CO (stereo unspecified) | -0.7 | -17.8 | -1.6 | 1.9 | 5.0% | 0.7% | 7.5
Cc1ccc(S(=O)(=O)N2CCN(C(=O)c3ccccc3)CC2)cc1 | -6.5 | -15.7 | 5.3 | -2.3 | 11.0% | . | 3.1
CC(=O)Nc1ccc(S(=O)(=O)NCCC(=O)Nc2ncccc2C)cc1 | -4.1 | -6.4 | 1.9 | -2.6 | . | -1.1% | 1.2
CCN(CC(=O)Nc1cc(Cl)ccc1C)C(=O)C1CCN(c2ncnc3sc(C)c(C)c23)CC1 | . | -15.6 | -27.7 | 11.8 | . | 0.6% | ?
O=C(NNc1cccc(Cl)n1)c1ccc(Cl)cc1Cl | 5.4 | -5.1 | 2.7 | -1.5 | 10.4% | . | 4.2
CCN(CC)c1ccc(NC(=O)c2ccc3c(c2)OCO3)c(C)c1 | -19.8 | -1.4 | -2.6 | 0.6 | 7.6% | 4.3% | -10.2
COc1ccc(/C=C2/CCC(CN3CCOCC3)C2=O)cc1 (stereo unspecified) | . | -25.0 | 1.7 | -8.9 | . | -4.6% | -11.5
CCOc1ccc(NC(=O)C(C)Oc2ccc(C#N)cc2)cc1S(=O)(=O)N1CCCC1 (stereo unspecified) | -5.8 | -8.4 | -3.9 | -6.5 | . | -0.9% | 1.5
N#C/C(=C/c1ccccc1[N+](=O)[O-])C(=O)NCc1ccco1 | 2.8 | 26.3 | 5.2 | 3.5 | 5.6% | 1.1% | -16.1
CCOC(=O)[C@]12CCC=C1N(Cc1ccco1)C(=O)[C@H](CC(=O)NCc1ccccc1)C2 | . | . | 6.1 | . | . | -0.7% | -2.9
COc1cc(/C=C2\SC(=S)N(CCC(=O)Nc3ccc(O)cc3)C2=O)cc(OC)c1OC | 4.9 | 1.1 | -23.1 | 0.1 | -13.0% | 0.9% | -0.1
CCCn1c(N2CCN(CC(=O)c3c(C)n(C)c4ccc(OC)cc34)CC2)nc2c1c(=O)[nH]c(=O)n2C | 3.1 | -5.1 | 6.1 | -5.3 | -4.8% | -2.7% | -4.0
COc1ccc(NC(=O)Nc2cc(C)ccc2F)cc1OC | -9.0 | -4.3 | -3.4 | -1.1 | 4.2% | 1.2% | -2.1
CCNc1nc(N)nc(Oc2ccc(OCCOc3ccccc3)nn2)n1 | -2.3 | -0.9 | 5.2 | -1.0 | 12.3% | -4.1%[38.3 µM] | 2.0
COc1ccccc1NC(=O)CN1CCN(CC(=O)Nc2ccc(OC)c(OC)c2)CC1 | 2.4 | -3.2 | 3.6 | 4.5 | 0.4% | -0.9% | 2.5
CCOc1ccccc1C(=O)Nc1nnc(SCC(=O)N2CCCC2)s1 | . | -12.8 | 3.4 | -3.3 | . | 1.2% | 10.2
COc1ccccc1C(=O)Nc1nnc(-c2ccc3c(c2)CCCC3)o1 | . | -7.2 | 1.2 | -4.0 | -18.1% | -0.1% | -9.6
O=C(CN(C(=O)c1csnn1)c1ccc(F)cc1)NCCc1ccccc1 | 19.5 | -7.5 | 0.1 | -1.8 | 4.9% | -2.6% | -1.9
CCn1c(SCC(=O)N/N=C/c2ccc(O)c(OC)c2)nc2ccccc21 | 19.1 | -3.8 | . | -5.8 | -14.4% | -0.5% | 23.6
N#C/C(=C/c1cc[nH]c1)C(N)=S | -4.1 | -11.6 | -16.9 | -4.4 | -10.3% | 1.0% | -6.0
O=C(CNCc1ccccn1)Nc1cc(C(F)(F)F)ccc1N1CCOCC1 | -2.1 | -8.1 | ? | 0.1 | -5.4% | -2.0% | -24.8
COc1cccc(NC(=O)Cn2c(CCC(=O)O)ccc2-c2ccc(C)cc2)c1 | -2.6 | -3.3 | . | -2.3 | 7.3% | 1.8% | -0.5
COCCCNCCC(CCC(C)C)c1ccc2c(c1)OCO2 (stereo unspecified) | -14.0 | -11.8 | 1.6 | -3.5 | -15.3% | 5.8% | 1.8
CCOc1cc(NC(=O)c2cccs2)c(OCC)cc1NC(=O)c1cccnc1 | 1.3 | -52.7 | . | -5.2 | 16.6% | 4.1% | -3.1
O=C(N/N=C/c1cc(Br)cs1)c1ccccc1[N+](=O)[O-] | -2.8 | -33.9 | 3.0 | 2.4 | 5.7% | 4.1% | 6.8
COc1ccc(C2Nc3ccccc3C(=O)N2Cc2ccccc2)cc1 (stereo unspecified) | 18.0 | -10.1 | 5.4 | -6.8 | 11.5% | 4.8% | -3.0
Clc1cccc(N2CCN(Cc3ccc(Br)o3)CC2)c1 | 4.4 | -2.8 | 5.9 | -5.3 | -27.3% | 7.6% | 2.4
Cc1cccc(C)c1NC(=O)CNC(=O)c1c(C)nn(-c2ccccc2)c1Cl | -11.4 | 4.5 | -0.2 | -3.0 | . | -0.8% | 3.9
CCOc1cc(N2CCOCC2)c(OCC)cc1NC(=O)c1cc(S(=O)(=O)N2CCOCC2)ccc1C | . | 13.7 | -0.9 | 1.0 | . | 3.1% | -6.7
O=c1[nH]cccc1-c1nc2ccccc2[nH]1 | -7.5 | -8.8 | -7.1 | 1.9 | 11.5% | 3.1% | -1.4
CCN1C(=O)[C@H]2[C@H]3CN=C(SCc4ccccc4)N3[C@@](CC)(C(=O)OC)[C@H]2C1=O | . | -4.4 | 7.4 | -1.5 | . | 0.1% | 11.2
O=C(CSc1nnc(-c2ccc(Cl)s2)o1)N1CCCc2ccccc21 | 9.7 | -12.9 | 2.2 | -2.9 | 1.0% | 4.4% | -1.6
COc1ccc(C2C(C(C)=O)=C(O)C(=O)N2CCc2c[nH]c3ccccc23)cc1 (stereo unspecified) | 4.1 | -5.2 | . | -4.7 | ? | 1.2% | -0.2
CC1CCCCC1NC(=O)C1CCN(S(=O)(=O)c2ccc(-n3cnnn3)cc2)CC1 (stereo unspecified) | -4.6 | 3.1 | 2.1 | -0.5 | 4.2% | 0.1%[38.3 µM] | 3.8
CCOc1cc(/C=C\c2nc(O)c([N+](=O)[O-])c(=O)[nH]2)ccc1OC(C)CC (stereo unspecified) | 19.2 | -12.7 | . | -0.2 | -1.9% | 1.3% | -9.7
CCn1cc(CN(C)C(=O)/C=C/c2ccc([N+](=O)[O-])cc2)c(C)n1 | -6.4 | 8.9 | 0.0 | -0.4 | 3.0% | 0.4% | 10.3
O=C(c1ccccc1)c1c(O)cc(-c2ccccc2)oc1=O | 9.6 | -0.5 | 1.5 | -0.5 | 13.0% | -0.3% | 1.1
COc1cc(-c2noc(C)c2C(=O)NCCCn2ccnc2)cc(OC)c1OC | . | -10.0 | -16.0 | -1.4 | . | 0.6% | -3.2
CC(C)n1cnnc1SCC(=O)NCC(=O)Nc1ccc(F)cc1 | 4.8 | -0.2 | 9.8 | 0.5 | . | 1.8% | 6.2

Exported as a markdown table: part of the list above.
| SMILES | TRPV1 potentiator | D2 PAM | CtBP-E1A blk | D2 ag | Sfp inh | PINK1 modulator | Six1-Eya2 blk |
| --- | --- | --- | --- | --- | --- | --- | --- |
| CCCNC(=O)COC(=O)c1c2c(nc3ccccc13)CCC2 | -17.2 | -0.2 | -1.4 | -1.9 | 7.6% | 0.5% | 5.0 |
| CCCCNC(=O)CN1C(=O)NC(Cc2ccccc2)(Cc2ccccc2)C1=O | 11.9 | -4.1 | 7.2 | 2.2 | 13.9% | -0.2% | -0.5 |
| Cc1[nH]c(=O)[nH]c(=O)c1/C=C/C(=O)O | 1.4 | -4.8 | 3.8 | -3.3 | 13.5% | -0.3% | 8.7 |
| Cc1ccc(NC(=O)COc2nc(C)cs2)cc1 | -3.7 | -9.3 | -18.8 | 3.5 | 5.3% | 3.3% | 3.0 |
| O=C(COC(=O)CSc1ccccc1)NCCNC(=O)COC(=O)CSc1ccccc1 | 4.7 | -14.7 | -20.7 | -2.3 | . | -0.1% | -2.8 |
| COC(=O)C1=C(C)NC(=O)CC1c1ccccc1OC (stereo unspecified) | 5.7 | 2.7 | -23.2 | -1.6 | 8.8% | -1.2% | 5.0 |
| CCOC(=O)c1ccc(NS(=O)(=O)c2cc(C)ccc2OC)cc1 | 4.8 | 1.0 | -1.4 | -2.2 | -5.9% | 1.9% | -0.6 |
| CCOC(=O)CSc1nc2ccc(N3CCOCC3)cc2c(=O)n1Cc1ccccc1 | -21.6 | 21.2 | 1.3 | 3.9 | ? | . | -1.3 |
